Screening data deposited in PubChem BioAssay by National Center for Advancing Translational Sciences (NCATS).
hNpr1 antagonist: human Npr1 receptor antagonism | P16066 | HEK293 hNpr1 GloSensor cGMP, ANP-stimulated luminescence | Potency, µM (highest dose often 46.3 µM), without a hit: top-dose activity change, negative = inhibition, hits mostly inhibitors | 76,000 compounds, 1.6% hits | AID 1347048; active = well fitted inhibition curve with a large enough effect; inconclusive = small, poorly fitted or top-dose-only effect; inactive = no such curve, though single readings can be large or run the other way;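 note: nearly all actives have a fitted effect of over 60% in size; nearly all hits also lower the signal before the agonist is added; a reference antagonist and vehicle were the controls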
Target sequence (P16066 whole entry, looked up): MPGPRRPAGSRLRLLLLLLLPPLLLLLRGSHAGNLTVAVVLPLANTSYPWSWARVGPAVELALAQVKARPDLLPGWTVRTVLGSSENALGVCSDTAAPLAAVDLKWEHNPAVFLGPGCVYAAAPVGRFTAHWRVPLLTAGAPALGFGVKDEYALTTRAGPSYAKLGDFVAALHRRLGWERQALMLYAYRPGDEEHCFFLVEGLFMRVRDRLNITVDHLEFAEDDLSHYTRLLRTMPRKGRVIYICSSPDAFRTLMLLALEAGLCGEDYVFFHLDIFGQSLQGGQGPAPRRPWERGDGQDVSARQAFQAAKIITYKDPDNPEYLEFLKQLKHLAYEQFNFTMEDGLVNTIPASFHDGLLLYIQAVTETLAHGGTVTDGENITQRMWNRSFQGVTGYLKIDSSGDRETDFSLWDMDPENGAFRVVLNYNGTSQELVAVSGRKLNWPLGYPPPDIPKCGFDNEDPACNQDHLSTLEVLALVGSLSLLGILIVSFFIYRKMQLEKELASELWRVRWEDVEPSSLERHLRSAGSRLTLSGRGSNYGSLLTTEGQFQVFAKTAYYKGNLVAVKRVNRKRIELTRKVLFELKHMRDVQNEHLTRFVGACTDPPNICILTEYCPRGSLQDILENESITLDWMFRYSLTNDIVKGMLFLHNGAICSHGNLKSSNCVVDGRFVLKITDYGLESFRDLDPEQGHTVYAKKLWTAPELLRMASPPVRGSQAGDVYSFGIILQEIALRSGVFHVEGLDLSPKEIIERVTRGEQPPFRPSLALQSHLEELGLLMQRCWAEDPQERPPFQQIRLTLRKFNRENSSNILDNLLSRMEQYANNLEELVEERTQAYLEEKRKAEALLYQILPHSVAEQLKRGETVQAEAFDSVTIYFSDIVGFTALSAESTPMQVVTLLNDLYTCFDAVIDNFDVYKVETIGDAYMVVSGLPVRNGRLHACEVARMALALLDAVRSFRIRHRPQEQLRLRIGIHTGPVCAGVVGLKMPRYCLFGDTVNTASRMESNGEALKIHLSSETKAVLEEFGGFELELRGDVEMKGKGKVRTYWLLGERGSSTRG
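HEK293 cells stably expressing human Npr1 and cGMP GloSensor pGS-40F, loaded 2 h with 2% GloSensor reagent, given compound 30 min at room temperature. Luminescence read before and 20 min after 0.1 nM hNppA.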
Numbers without * were called inactive; ? = inconclusive; & = joins results of further samples; [ ] = another dose, or the depositor's remark. % is set by controls: 0 for no effect and ±100 for the full control effect; potency is the fitted concentration of half-maximal effect.

SMILES	hNpr1 antagonist
Cc1nnc(-c2cc(-c3cnn(C)c3)ccn2)n1C1CCCCC1	0%[70.6 µM]
CCn1c2c(c(=O)n1Cc1ccccc1)CCN(C(=O)c1ncccn1)C2	-1%[70.6 µM]
CN1CCN(C)c2cc(-c3ccc(N4CCOCC4)cc3)ncc2C1	-3%[70.6 µM]
O=C(Nc1ccccc1)N1CCCC(c2nc(C3CCOCC3)no2)C1 (configuration not stated)	-2%
CCn1cc(S(=O)(=O)NC2CCN(C(=O)N3CC4CC(C3)[C@H]3CCCC(=O)N3C4)CC2)cn1 (some centres not stated)	-1%
Cc1cc(=O)n2[nH]c(CC(=O)N3CC[C@@](O)(C4CCOCC4)[C@H](C)C3)nc2n1	2%
CNc1ncc(C(=O)N[C@@H]2COCC[C@@H]2OCc2c(C)noc2C)cn1	-6%
COc1ccc(-n2cc(CN3CCCC(O)C3)c(-c3cccc(F)c3)n2)cc1 (configuration not stated)	0%
CCCCC(=O)N(C)CC1CCOC1 (configuration not stated)	1%
Cc1csc(Nc2ccc3c(n2)CN(C)C(=O)CO3)n1	1%[70.6 µM]
COc1ccccc1CNC(=O)CCC1CCN(S(=O)(=O)c2ccccc2)CC1	-5%
Cc1cccc(C)c1Oc1ncccc1CNC(=O)CC1CCC(=O)N1 (configuration not stated)	3%
Fc1ccc2c(c1)nc1n2[C@@H](CNCc2c[nH]c3ccccc23)COC1	-22%[70.6 µM]
NC(=O)CN1C(=O)[C@@H]2CN(S(=O)(=O)c3ccc(F)cc3)CCN2C1=O	1%[70.6 µM]
COc1ccc(NC(=O)N2C[C@@H](F)C[C@H]2C(=O)N2CCCCC2)c(OC)c1	0%
Cc1cnc(CCNS(=O)(=O)c2cn(C)cn2)n1C1CCC1	5%
COCc1nc(C2CCOCC2)nn1CC1COCCO1 (configuration not stated)	-4%
COC(=O)c1cccc(NC(=S)N[C@H]2CO[C@H]3[C@@H]2OC[C@@H]3n2nnnc2Oc2cccc(N3CCOCC3)c2)c1	?
CCN1C(=O)CCN(S(=O)(=O)c2ccccc2)CC12CCOCC2	4%
Cc1nc(-c2cccc(Cl)c2)n(Cc2cccc(F)c2)c(=O)c1CCO	-6%
Cc1cc(C)n2nc(C(=O)N3CCCC4(CNC(=O)O4)C3)cc2n1 (configuration not stated)	0%
Cc1cc(C(=O)Nc2cccc(-c3nnc4n3CCCC4)c2)n[nH]1	?
CCOc1cc(=O)n2c(c1C(=O)NCc1ccccc1Cl)CCCCC2	-2%
Cc1nc(C(C)C)sc1C(=O)N1CCCC(OCc2ccccn2)C1 (configuration not stated)	-1%

Among those listed so far, 5 contain fluorine:
SMILES	hNpr1 antagonist
COc1ccc(-n2cc(CN3CCCC(O)C3)c(-c3cccc(F)c3)n2)cc1 (configuration not stated)	0%
Fc1ccc2c(c1)nc1n2[C@@H](CNCc2c[nH]c3ccccc23)COC1	-22%[70.6 µM]
NC(=O)CN1C(=O)[C@@H]2CN(S(=O)(=O)c3ccc(F)cc3)CCN2C1=O	1%[70.6 µM]
COc1ccc(NC(=O)N2C[C@@H](F)C[C@H]2C(=O)N2CCCCC2)c(OC)c1	0%
Cc1nc(-c2cccc(Cl)c2)n(Cc2cccc(F)c2)c(=O)c1CCO	-6%

The list continues:
SMILES	hNpr1 antagonist
Cc1ccc(-n2nc(C)c([C@@H]3C=C[C@@H](NC(=O)COCC(=O)O)C3)c2C)cc1Cl	0%[70.6 µM]
Cc1noc(-c2cn(C3CCN(C(=O)c4cccc(N(C)C)c4)CC3)nn2)n1	-11%
Cc1nc(-c2ccc(OC3CCN(C(=O)NC4CCCCC4)C3)cc2)no1 (configuration not stated)	-4%
O=c1[nH]ccn1C1CCN(Cc2ccccc2C(F)(F)F)CC1	-1%[70.6 µM]
Cc1nc(-c2cn(C3CCCN(C(=O)c4ccc(F)c(Cl)c4)C3)nn2)no1 (configuration not stated)	2%
Cc1cc(NC(=O)N2CCCC(Cn3c(C)nc4cccnc43)C2)ccc1Br (configuration not stated)	-22%
O=C(c1ccc(-c2ccc(O)cc2)cc1)N1CCOC2(CNCCOC2)C1 (configuration not stated)	-3%
CN(CC(=O)N1CCC(Cc2nc(C3CCOCC3)no2)CC1)S(=O)(=O)c1cnc[nH]1	14%
O=C(NCc1nnc2ccc(-c3ccc(Cl)cc3)nn12)c1cccc2[nH]ccc12	-1%
CNc1cccnc1OC1CCN(S(=O)(=O)c2ccc3c(c2)CCC3)C1 (configuration not stated)	-19%
Cc1ccc(NC(=O)N2c3ccccc3CC2c2nc(C3CC3)no2)c(C)c1 (configuration not stated)	2%
O=C(NCc1c[nH]c2ncccc12)c1ccccc1F	-15%[70.6 µM]
CCN(CC)c1cc(CCC(=O)NCCCN2CCOCC2)ccn1	-3%
CCn1ccnc1CN1CCCC(C(=O)Nc2ccccc2-c2ccc(OC)cc2)C1 (configuration not stated)	-4%
CCn1nccc1C(=O)N1CCC(O)(c2ccccc2)[C@H](N(C)C)C1 (some centres not stated)	2%
CS(=O)(=O)N1CCOc2ccc(CCC(=O)N3CCC(C(N)=O)CC3)cc2C1	6%
Cc1ccc(OCC(=O)N2CCC3(CC2)CCC(O)(CN(C)C)CC3)cc1	-8%
O=C([C@@H]1C[C@H](Oc2ccccc2)CN1C(=O)NC1CCCCC1)N1CCCC1	-6%
CC1CCN(C(=O)c2cc(CN3CCC(Cc4ccccc4)CC3)on2)CC1	-2%
NC(=O)c1ccc(-c2nccc(N3CCC(O)CC3)n2)cc1Cl	-3%
O=C1NCCCCCN(C(=O)CN2CCCCCC2)[C@H]2CCC[C@@H]12	1%
COc1nc(C)c(C(=O)N2CCC(c3[nH]ncc3-c3ccccc3)CC2)s1	-28%
O=C(c1cnccn1)N1CCCC(c2ccccc2)(c2ccccc2)C1	6%
O=S(=O)(Cc1ccccc1)N1CCC(Cc2nncn2-c2ccccc2)CC1	-11%
COc1ccc(C2Cn3nnc(-c4noc(-c5ccc(OC)cc5C)n4)c3CO2)cc1 (configuration not stated)	-3%
CCOc1ccccc1C(=O)N1CCCN(c2cc(-c3ccc(Cl)cc3)[nH]n2)CC1	-23%
O=C(c1c(F)cccc1F)N1CCC(OC2CCN(Cc3ccccc3)CC2)CC1	-2%
Cc1noc([C@@H]2CN(Cc3ccc(F)c(Cl)c3)C[C@H]2CO)n1	-3%
Cc1nc2ccc(Cc3nc(-c4cccnn4)no3)cc2[nH]1	2%
O=C(c1ccc2nccnc2c1)N1CCn2nc(Cc3ccccc3)cc2C1	-2%
CCN1c2cc(C(=O)Nc3ccc(C)cc3)ccc2C(=O)N2CCCCC21 (configuration not stated)	?
Cc1ccc(CN2CCc3nc(N4CCOCC4)[nH]c(=O)c3CC2)s1	0%
CSc1ccc(-c2nc(CN3CCOC(CCO)C3)c(C)o2)cc1 (configuration not stated)	1%
COc1cccc(CC(=O)N2CCC(Cn3c(C)cnc3C3CCC3)CC2)c1	9%
COCCn1c(=O)n([C@H]2CCCN(C(=O)c3cc(C)nn3C)C2)c2ncccc21	-1%
CC(C)c1noc([C@@H]2C[C@H]3C(=O)NCCCCCCN(C(=O)c4ccco4)[C@H]3C2)n1	-9%
CNC(=O)[C@@H](c1ccccc1)N1CCC[C@H]1C(=O)NC1CCOCC1	3%[70.6 µM]
C=CCCC(CN1CCCOCC1)Oc1ncc(C)c(N(C)C)n1 (configuration not stated)	-7%
Cc1ccc(C2=NC3(CCN(C(=O)c4c[nH]c5ccccc45)CC3)ON2)cc1	-6%
COc1cccc(CN2C(=O)OC3(CCN(C(=O)Cc4cccc(F)c4)CC3)C2(C)c2cccnc2)c1 (configuration not stated)	0%
O=C1COc2ccc(OCc3ccc(F)cc3)nc2CN1CCOc1ccccc1	32µM*
COc1ccc(Cl)cc1C(=O)N1CC(=O)N(c2ccccc2C#N)CC1C (configuration not stated)	2%
COc1ccc(-c2ccc3ncn(-c4ccc(F)cc4F)c(=O)c3n2)cc1OC	0%[70.6 µM]
O=C(CC[C@@H]1CNC(=O)[C@@H]2C[C@H](NC(=O)Nc3ccc(F)cc3F)CN12)NCc1ccccc1	4%
COc1cccc(Nc2ccc3c(n2)C(C)(C(=O)NC(C)C)CN(C)C3)c1 (configuration not stated)	-2%[70.6 µM]
COc1cccc(C(=O)N2CCC(c3n[nH]c(=O)n3Cc3ccc(C)cc3)CC2)c1	-7%
COc1ccc(C(=O)N2C[C@@H]3C[C@H](C2)c2ccc(NC(=O)Nc4cccc(C#N)c4)c(=O)n2C3)cc1	-2%
CCCC(=O)N1CCC2(CC1)C(=O)N(CC)c1ccccc12	2%
Cc1oc(C(O)c2cncnc2)nc1C(=O)Nc1cccc([S+](C)(=O)[O-])c1 (configuration not stated)	0%[70.6 µM]
CC(C)CN1C[C@@H](NC(=O)c2cccnc2)C[C@H]1CO	3%
Cc1cnc(C)n1CCN	-3%
COc1ccccc1CNc1ccc2nnc(C)n2n1	?
OC1(CN2CCN(c3cccc(C(F)(F)F)c3)CC2)CNCCOC1 (configuration not stated)	5%
COc1ccccc1C(=O)NC1CCN(c2cnn(CC3CC3)c(=O)c2)CC1	-15%
CS(=O)(=O)N1CCC(C2CCN(C(=O)c3ccc(=O)[nH]c3)C2)CC1 (configuration not stated)	2%
O=C1[C@H]2CN(Cc3ccc(Cl)cc3)C[C@H]2C(=O)N1CCN1CCc2ccccc2C1	-25%
CC1(C)Cc2c(cnn2-c2ccc(F)cc2)C(NC(=O)c2cc(C3CC3)[nH]n2)C1 (configuration not stated)	-15%
CC(C)CN(CC1CN(C(=O)c2cccc(Cl)c2)CCO1)C(=O)c1cccc2ccccc12 (configuration not stated)	-20%
COc1ccc(Cl)cc1-c1ccc2c(c1)C(=O)N1C[C@@H](NS(=O)(=O)c3ccc(F)cc3)C[C@H]1C(=O)N2	-28%
O=C(C1CCOCC1)N1CCCn2nc(C(O)c3ccccc3)cc2C1 (configuration not stated)	4%

An excerpt of these results, as a markdown table.
| Molecule | hNpr1 antagonist |
| --- | --- |
| COc1cccc(CN2C(=O)OC3(CCN(C(=O)Cc4cccc(F)c4)CC3)C2(C)c2cccnc2)c1 (configuration not stated) | 0% |
| O=C1COc2ccc(OCc3ccc(F)cc3)nc2CN1CCOc1ccccc1 | 32µM* |
| COc1ccc(Cl)cc1C(=O)N1CC(=O)N(c2ccccc2C#N)CC1C (configuration not stated) | 2% |
| COc1ccc(-c2ccc3ncn(-c4ccc(F)cc4F)c(=O)c3n2)cc1OC | 0%[70.6 µM] |
| O=C(CC[C@@H]1CNC(=O)[C@@H]2C[C@H](NC(=O)Nc3ccc(F)cc3F)CN12)NCc1ccccc1 | 4% |

More structures:
SMILES	hNpr1 antagonist
O=C1NCCCCCCN(C(=O)CC2CCCCC2)[C@H]2CCCC[C@@H]12	3%
CC(C)(C)C1CCC2(CC1)NC(=O)N(CC(=O)Nc1ccccc1C(F)(F)F)C2=O (configuration not stated)	3%
COCc1ncc(C)n1CCNC(=O)c1ccoc1	2%
COc1ccc(-c2cc(C[C@H]3CNCC[C@H]3CC(=O)N3CCC(n4c(=O)[nH]c5ccccc54)CC3)no2)cc1	-1%
COc1ccccc1NC(=O)Cn1c(-c2ccccc2)nc(C)c(CCO)c1=O	-12%
Cc1ccc(C(=O)N2CC(c3nnc(-c4ccncc4)o3)C3(CCOCC3)C2)s1 (configuration not stated)	-12%
CNC(=O)N1C[C@@H](CN(C)C)[C@H](NC(=O)c2ccsc2)C1	3%
O=C(c1ccc2ncccc2c1)N1CC(CO)C2(CCNCC2)C1 (configuration not stated)	5%
O=C(NCC(F)F)c1cc(Br)cn2ccnc12	28%&-1%[70.6 µM]
NC(=O)c1cccc(-c2ncc3c(n2)OCCN(CC2CC2)C3=O)c1	-7%[70.6 µM]
CN(Cc1ccccc1)Cc1cn([C@H]2CO[C@H]3[C@@H]2OC[C@@H]3NCc2ccco2)nn1	4%[70.6 µM]
CC(NC(=O)COc1ccc(NC(=O)C2CC2)cn1)c1cccs1 (configuration not stated)	3%

Retrieved by structure from the entries so far, two records:
SMILES	hNpr1 antagonist
O=C(c1ccc2ncccc2c1)N1CC(CO)C2(CCNCC2)C1 (configuration not stated)	5%
COCc1ncc(C)n1CCNC(=O)c1ccoc1	2%

(list continues)
SMILES	hNpr1 antagonist
CO[C@H]1[C@H](NC(=O)c2cnc3ccccc3c2)c2ccccc2C12CCNCC2	0%
COc1cc(NC(=O)Cn2nc3c(cc2=O)CN(C(C)=O)CC3)cc(OC)c1	4%
COc1ccc(NC(=O)N2C[C@@H]3C[C@H](C2)c2ccc(NS(=O)(=O)c4cccc(F)c4)c(=O)n2C3)cc1	-1%
O=C1CC(c2nc(-c3ccc4nc[nH]c4c3)no2)CN1C1CC1 (configuration not stated)	1%
O=C(Cc1c[nH]c2ccccc12)N1CCC2(CC1)CC(OCC1CC1)CCO2 (configuration not stated)	-8%
O=C(c1cccs1)N1CCCC(Cc2noc(-c3cccnc3)n2)C1 (configuration not stated)	14%
O=C(c1cc(F)cc(F)c1)N1CC2CC(C1)[C@H]1CCCC(=O)N1C2 (some centres not stated)	1%
COc1cccc(C2Cn3nnc(-c4nc(-c5ccccc5OC)no4)c3CO2)c1 (configuration not stated)	-3%
CCN1CCC2(CCC1=O)CN(Cc1cccc3cccnc13)CCN2C (configuration not stated)	1%
O=C(CC[C@H]1NC(=O)c2ccccc2NC1=O)NC1CCS(=O)(=O)C1 (some centres not stated)	-3%
O=C(N[C@H]1CCN2C(=O)c3cc(-c4cccc(C(F)(F)F)c4)ccc3NC(=O)[C@H]12)c1cnccn1	-1%
CC(C)c1nc(-c2ccc(OC3CCN(C(=O)c4cc(F)ccc4F)C3)cc2)no1 (configuration not stated)	11µM*
Cc1noc(C)c1-c1cc(-c2ccccc2C(F)(F)F)cn2cncc12	-23%[70.6 µM]

A portion of the library, so the mix of outcomes need not match the whole.
